Source: PubChem
VDR inh – blocks the human vitamin D receptor; P11473; VDR-SRC2-3 peptide fluorescence polarization, 2 h; 0.93% of 400,000 active; AID 504847; Potency, µM, for inactives: max response, negative = inhibition, actives largely listed as inhibitors; active = well fitted inhibition curve with a large enough effect; inconclusive = small, poorly fitted or top-dose-only effect, or another doubt; inactive = no such curve, though single readings can be large or run the other way; note: series mostly up to about 120 µM
Target sequence (P11473 whole entry, looked up): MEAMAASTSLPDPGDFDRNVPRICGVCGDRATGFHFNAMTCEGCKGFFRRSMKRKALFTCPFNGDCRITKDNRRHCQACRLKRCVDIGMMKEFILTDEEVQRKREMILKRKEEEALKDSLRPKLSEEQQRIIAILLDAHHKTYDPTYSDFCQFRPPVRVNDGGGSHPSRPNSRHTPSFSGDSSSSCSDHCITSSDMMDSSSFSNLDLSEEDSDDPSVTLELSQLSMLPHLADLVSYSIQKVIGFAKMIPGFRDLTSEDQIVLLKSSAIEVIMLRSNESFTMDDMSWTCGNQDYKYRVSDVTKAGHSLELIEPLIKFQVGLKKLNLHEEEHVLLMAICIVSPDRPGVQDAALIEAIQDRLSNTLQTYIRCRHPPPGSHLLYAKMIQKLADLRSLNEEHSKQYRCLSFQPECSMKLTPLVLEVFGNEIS
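FP read-out; VDR + SRC2-3 coactivator peptide; 23 nl compound by pintool; 2 h RT incubation; reagents held at 4 deg C, protected from light.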
* = called active by the depositor; & = joins results of further samples. % is set by controls: 0 for no effect and ±100 for the full control effect; potency is the fitted concentration of half-maximal effect. Some of the compounds tested; rates above refer to the full screens.

How did CN(C)S(=O)(=O)c1cccc(NC(=S)NC2CCCCC2)c1 do in these assays?
VDR inh: -3%

What do the screens show for `Cc1cc2c(SCC(=O)N3CCN(c4ccccc4)CC3)ncnc2s1`?
VDR inh: -4%

Results for CCN(CC(=O)Nc1c(F)cccc1F)C(=O)/C=C/c1ccc2c(c1)OCO2 ?
VDR inh: inconclusive

How did Cc1cnc(C(=O)OCC(=O)c2ccccc2)cn1 do in these assays?
VDR inh: 11%

Results for Cc1ccc(S(=O)(=O)/N=C(\CCl)N2CCOCC2)cc1 ?
VDR inh: -5%

How did CN1CCN(c2nc3c(c(=O)[nH]c(=O)n3C)n2Cc2ccc(Cl)cc2)CC1 do in these assays?
VDR inh: -10%

Results for COc1ccc(N(CC(=O)NCc2cccnc2)S(=O)(=O)c2ccc(C)c([N+](=O)[O-])c2)cc1 ?
VDR inh: -27%

What do the screens show for `CCN(CC)C(=O)CSc1nc(-c2ccc(C)cc2)nc2c1COC(C)(C)C2`?
VDR inh: 24%

Results for COc1ccc2cc(C(=O)Nc3c(C)n(C)n(-c4ccccc4)c3=O)sc(=O)c2c1OC ?
VDR inh: -9%

How did CCCCOc1ccc(C(=O)N/N=C/c2cn[nH]c2-c2ccc(OC)c(OC)c2)cc1 do in these assays?
VDR inh: -4%

What do the screens show for `COc1ccc2nc(NC(=O)CCc3nc(-c4ccccc4F)no3)sc2c1`?
VDR inh: 26%

How did Cc1ccc(S(=O)(=O)Nc2ccc(-c3nnc(SCC#N)n3C)cc2)cc1 do in these assays?
VDR inh: -6%

How did O=C(Nc1ccc(C(F)(F)F)cn1)Nc1cccs1 do in these assays?
VDR inh: 8%

How did COc1cc(NC(=O)CSc2ncccc2C(=O)OC(C)C)cc(OC)c1 do in these assays?
VDR inh: 0%&5%

How did CCN(CC)S(=O)(=O)c1ccc2c(c1)N(CC(=O)N1CCC(C(N)=O)CC1)C(=O)CO2 do in these assays?
VDR inh: 0%

Results for O=C(CCn1cnnn1)Nc1cccc(F)c1 ?
VDR inh: -11%

How did COc1ccccc1-c1coc2cc(OCC(=O)OCc3ccccc3)ccc2c1=O do in these assays?
VDR inh: -5%

What do the screens show for `CC1CCCCN1CC(=O)Nc1ccccc1Sc1ccccc1` (configuration not stated)?
VDR inh: -20%

How did Cc1ccccc1CNC(=O)CCC(=O)N1CC2CCCN2c2ccccc21 (configuration not stated) do in these assays?
VDR inh: -12%

How did COc1ccc(C(=O)CSc2ccc(-c3ccccc3)nn2)cc1 do in these assays?
VDR inh: -1%

What do the screens show for `CC1CCCC/C1=N\NC(=S)NCCc1ccccc1` (configuration not stated)?
VDR inh: -21%

Results for COc1cc(C(=O)N2CCN(c3ccccc3O)CC2)ccc1OCC(=O)N1CCOCC1 ?
VDR inh: -1%

What do the screens show for `CC1=NN(C(C)C)C(=O)C1`?
VDR inh: -7%

What do the screens show for `CCN1CCN(C(=O)c2cc3c(s2)-c2c(C)cccc2OC3)CC1`?
VDR inh: 2%

What do the screens show for `O=C(Nc1ccccc1)Nc1cccc2cccnc12`?
VDR inh: -2%

How did CCOC(=O)C1(Cc2cccc(OC)c2)CCN(Cc2cccn2-c2ccccn2)CC1 do in these assays?
VDR inh: 21%

What do the screens show for `COc1ccc(NS(=O)(=O)c2cc(NC(=O)c3ccc(=O)[nH]c3)ccc2C)cc1`?
VDR inh: -25%

How did O=C(COC(=O)/C=C/c1ccco1)Nc1ncc(C(F)(F)F)cc1Cl do in these assays?
VDR inh: -6%

What do the screens show for `Cc1cnc(NC(=O)c2ccc(Cl)nc2)s1`?
VDR inh: 0%

How did CCOc1ccc2nc(SCC(=O)NCc3ccc(OC)cc3)[nH]c2c1 do in these assays?
VDR inh: -16%

What do the screens show for `Cc1ccc(Cl)cc1NC(=O)CC1NC2CCCCC2NC1=O` (configuration not stated)?
VDR inh: 1%

How did CCOc1ccc(CCNC(=O)CCC(=O)c2cccs2)cc1OCC do in these assays?
VDR inh: 15%

What do the screens show for `O=C1C2CCCCC2C(=O)N1c1ccc(NC2CCCCC2)c([N+](=O)[O-])c1` (configuration not stated)?
VDR inh: -18%

How did CCOC(=O)c1c(NC(=O)C(C)Sc2cn(CCNC(=O)c3c(F)cccc3F)c3ccccc23)sc2c1CCC2 (configuration not stated) do in these assays?
VDR inh: -15%

Results for Cc1nonc1OCCNC(=O)C12CC3CC(CC(C3)C1)C2 ?
VDR inh: -3%

What do the screens show for `COc1ccc(OC)c(CNC(=O)CCc2c(C)nc3c(c2C)c(=O)n(C)c(=O)n3C)c1`?
VDR inh: -18%

Results for Cc1ccc(Cl)cc1N1CCN(S(=O)(=O)c2cn(C)c(C)n2)CC1 ?
VDR inh: 4%

Results for COc1cccc(NC(=O)COC(=O)c2ccccc2F)c1 ?
VDR inh: -4%

Results for NCCNc1ccc([N+](=O)[O-])cc1 ?
VDR inh: -10%

How did COc1cc(C(C)=O)ccc1Oc1ncnc2c1cnn2-c1ccc(F)cc1 do in these assays?
VDR inh: 5%

How did Cc1ccc(N2C(=O)N(CC(=O)Nc3ccc([N+](=O)[O-])cc3)C(=O)C2C)cc1 (configuration not stated) do in these assays?
VDR inh: -7%

What do the screens show for `CCc1ccccc1N(CC(=O)N/N=C/c1ccc(OC(=O)OC)c(OC)c1)S(C)(=O)=O`?
VDR inh: -12%

Results for CCN(CC)C(=O)CS(=O)(=O)CC(=O)Nc1cc(OCCOC)c(Cl)cc1Cl ?
VDR inh: 19%

What do the screens show for `O=C(CN1C(=O)C2CC=CCC2C1=O)Nc1cc(C(F)(F)F)ccc1N1CCCC1` (configuration not stated)?
VDR inh: -1%

Results for CC1(C)C2CCC(C2)C1(C)NC(=O)CN1CCN(Cc2ccccc2)CC1 (configuration not stated) ?
VDR inh: 10%

How did CC(C)(C)OC(=O)C[C@H]1C/C=C\C[C@H](CC(=O)N(CCO)Cc2ccccc2)C(=O)N[C@H](C(C)(C)C)COC1=O do in these assays?
VDR inh: -6%

What do the screens show for `COc1ccccc1CNc1ccc(-c2nc(-c3cccnc3)no2)cc1[N+](=O)[O-]`?
VDR inh: 7%

What do the screens show for `CC1(c2ccccc2)NC(=O)N(CC(=O)Nc2ccc3c(c2)OCO3)C1=O` (configuration not stated)?
VDR inh: -1%

Results for CC(C)(C)NC(=O)Cc1ccc(S(=O)(=O)N2CCCC2)s1 ?
VDR inh: 2%

What do the screens show for `Cc1ccc(CNC(=O)C2CCN(S(=O)(=O)c3ccc4c(c3)CC(C)N4C(=O)C3CCC3)CC2)o1` (configuration not stated)?
VDR inh: -10%

Results for CC(=O)N1CCN(c2ccc(NC(=O)c3ccccc3Br)cc2Cl)CC1 ?
VDR inh: 2%

Results for CC(CN1CCCCC1)OC(=O)c1cc2ccccc2o1 (configuration not stated) ?
VDR inh: 3%

What do the screens show for `O=C(NNc1nc(-c2ccccc2)c2cc(Br)ccc2n1)c1ccc(S(=O)(=O)N2CCCCC2)cc1`?
VDR inh: 17%

Results for O=S(=O)(NCC1CCN(Cc2ccccc2)CC1)c1ccccc1C(F)(F)F ?
VDR inh: -12%

How did CC(=O)Nc1cccc(-c2nc3ccccc3s2)c1C do in these assays?
VDR inh: 3%

How did O=C(O)C1CCCN1S(=O)(=O)c1ccc(Br)s1 (configuration not stated) (tested in a mixture with another compound) do in these assays?
VDR inh: -5%

How did CC(C)CNC(=O)c1ccccc1NC(=O)c1ccc(CSc2ccccc2)cc1 do in these assays?
VDR inh: -12%

How did Cc1nonc1NC(=O)CSc1nc(CCC2CCCC2)nc2ccccc12 do in these assays?
VDR inh: -12%

How did Cc1ccc(SCC(c2ccccc2)N2CCN(C)CCC2=O)cc1 (configuration not stated) do in these assays?
VDR inh: -10%

Results for O=C(CNC(=O)c1ccc(F)cc1)c1ccc(Cl)cc1 ?
VDR inh: 17%

How did Cc1c(-c2ccccc2)c(=O)oc2ccc(O)cc12 do in these assays?
VDR inh: -9%

Results for Nc1nc(-c2ccc(S(=O)(=O)N3CCCCC3)cc2)cs1 ?
VDR inh: -7%

How did Cc1cccc(N2NC(=O)/C(=C/c3ccc(-c4ccc(Cl)c(C(=O)O)c4)o3)C2=O)c1 do in these assays?
VDR inh: inconclusive

What do the screens show for `COc1ccc2c(c1)c1c(c(=O)n(CCc3ccccc3)c(=O)n1Cc1cccc(Cl)c1)n2C`?
VDR inh: 18%

What do the screens show for `CCOC(=O)c1c(C)oc2nc(C)nc(N3CCN(c4cc(Cl)ccc4C)CC3)c12`?
VDR inh: 11%

What do the screens show for `CCOc1ccc(CNC(=O)CCC(=O)n2nc(C)c3ccccc32)cc1`?
VDR inh: -6%

What do the screens show for `CC(C)(C)C(=O)Nc1ccccc1C(=O)NCc1ccco1`?
VDR inh: -16%

Results for CCN(CC(=O)Nc1ccc(NC(C)=O)cc1)C(=O)CSc1ncnc2sc(C)c(C)c12 ?
VDR inh: 9%

How did CCn1c(=O)c(=O)[nH]c2cc(C(=O)NC(C)c3ccc(S(N)(=O)=O)cc3)ccc21 (configuration not stated) do in these assays?
VDR inh: inconclusive

How did CCOC(=O)c1c(C)[nH]c(C(=O)CSc2nnc(-c3ccncc3)n2CC)c1C do in these assays?
VDR inh: 22%

Results for Cc1nn(C)c(C)c1CN(C)C(=O)C1CCC(=O)N(C2CCCCCC2)C1 (configuration not stated) ?
VDR inh: -6%

Results for CN(C(=O)CCc1nnc(CCCCc2ccccc2)o1)C1CCOCC1 ?
VDR inh: 3%

Results for COC(=O)C1=C(NC(C)=O)CCS1 ?
VDR inh: -3%

Results for Cc1nc(-n2nc(C)c(Cc3ccc4c(c3)OCO4)c2C)sc1C(=O)Nc1cccc(Cl)c1 ?
VDR inh: 24%

What do the screens show for `CN(CC(=O)Nc1ccccc1C(=O)NC1CC1)Cc1ccco1`?
VDR inh: 1%

Results for Cc1cc(O)c(C=Nc2ccc(Cl)cn2)c(=O)o1 ?
VDR inh: -19%

Results for COc1cc(NS(=O)(=O)c2ccc(N/C=C\C(=O)c3ccc(OC)c(OC)c3)cc2)nc(OC)n1 ?
VDR inh: -7%

How did CCc1nn2c(=O)cc(COC(=O)c3ccccc3NC(=O)COc3ccc(C)c(C)c3)nc2s1 do in these assays?
VDR inh: 14%

How did Cc1ccc(Cl)cc1-n1ncc2c(NCCCc3ccccc3)ncnc21 do in these assays?
VDR inh: 7%

How did CN(C(=O)COC(=O)C12CC3CC(CC(Cl)(C3)C1)C2)c1ccccc1 do in these assays?
VDR inh: -13%

How did CCN(C[C@H]1N[C@@](C)(C(=O)OC)[C@H]2C(=O)N(C)C(=O)[C@@H]12)S(=O)(=O)c1ccc(OC)cc1 do in these assays?
VDR inh: 3%

What do the screens show for `CCOc1ccc2[nH]c(C(=O)N/N=C/c3ccccc3OC)cc2c1`?
VDR inh: -7%

What do the screens show for `Cc1ccc(NC(=O)CN2C(=O)NC(C)(c3ccc(Cl)cc3)C2=O)c(Br)c1` (configuration not stated)?
VDR inh: -5%

Results for CCO[C@@H]1OC(C(=O)Nc2ccccc2)=C[C@H](c2ccc(C(F)(F)F)cc2)[C@H]1CCCO ?
VDR inh: 5%

Results for CCCNC(=O)Nc1nnc(C2CC2)s1 ?
VDR inh: 14%

What do the screens show for `CCC(=O)N1c2ccc(S(=O)(=O)CCC(=O)NCc3cccs3)cc2CC1C` (configuration not stated)?
VDR inh: 7%

How did CC(C)(C)c1ccc(C(=O)Nc2ccc(NC(=O)C(=O)O)cc2)o1 do in these assays?
VDR inh: 3%

Results for Cc1ccc(C(=O)CN(C(=O)c2ccc(Cl)c(Cl)c2)N2C(=O)C3CCCCC3C2=O)cc1C (configuration not stated) ?
VDR inh: 4%

Results for COc1ccccc1OCC(=O)NC1CC(C)(C)NC(C)(C)C1 ?
VDR inh: -3%

What do the screens show for `CN(C)C(=O)CCc1nc(-c2ccc(C(C)(C)C)cc2)no1`?
VDR inh: 3%

How did CCOc1ccc(-c2nc(-c3ccc(OC)cc3)no2)cc1OCC do in these assays?
VDR inh: 3%

What do the screens show for `CCN1CCN(c2sc(S(C)(=O)=O)nc2S(=O)(=O)c2ccc(Cl)cc2)CC1`?
VDR inh: 22%

What do the screens show for `COc1ccc(-c2nc3cc(C)ccn3c2NC(=O)c2ccc(F)cc2)cc1`?
VDR inh: 15%

What do the screens show for `CC1(C(=O)Nc2cccc(Br)c2)Cc2ccccc2C(=O)O1` (configuration not stated)?
VDR inh: -4%

How did CCOc1ccc(C2NC(=O)C(C#N)=C(S)N2c2ccc(OC)cc2)cc1OC (configuration not stated) do in these assays?
VDR inh: inconclusive
